Source: PubChem BioAssay (National Center for Advancing Translational Sciences (NCATS))
TRPML1 agonist: agonists of human TRPML1 channel; activation, % (test concentration not listed); Q9GZU1; TRPML1-expressing cells, Ca2+ dye fluorescence, FDSS; host cell line not named in the record; reference of the full effect not given here; 410,000 tested, 0.12% active; in the data active = activation above about 50%; inconclusive = about 30% to 50%; inactive = below about 30%; note: 0% is about no effect; the text of the record puts the active cut at 80%
Target sequence (Q9GZU1 whole entry, looked up): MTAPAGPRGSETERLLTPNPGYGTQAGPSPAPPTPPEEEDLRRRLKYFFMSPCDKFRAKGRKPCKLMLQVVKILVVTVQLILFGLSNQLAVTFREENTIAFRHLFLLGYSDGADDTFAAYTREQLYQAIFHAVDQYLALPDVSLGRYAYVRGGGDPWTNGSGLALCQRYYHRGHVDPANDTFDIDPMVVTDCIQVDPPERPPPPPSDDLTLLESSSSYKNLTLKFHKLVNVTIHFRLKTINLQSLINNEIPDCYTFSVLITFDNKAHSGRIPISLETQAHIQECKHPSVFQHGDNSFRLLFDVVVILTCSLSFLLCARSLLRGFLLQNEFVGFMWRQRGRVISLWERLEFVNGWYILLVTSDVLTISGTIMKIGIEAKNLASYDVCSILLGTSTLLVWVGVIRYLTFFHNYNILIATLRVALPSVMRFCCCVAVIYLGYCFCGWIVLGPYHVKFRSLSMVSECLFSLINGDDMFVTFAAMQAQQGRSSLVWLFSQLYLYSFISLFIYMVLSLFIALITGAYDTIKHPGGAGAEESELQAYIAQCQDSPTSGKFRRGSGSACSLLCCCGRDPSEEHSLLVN
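Calcium fluorescence on an FDSS kinetic reader gave the read-out. Tet-induced TRPML1-DL cells were plated overnight, dye-loaded (Ca8 with quencher, 45-90 min, room temperature, dark), then read 110 s after compound addition, and again 110 s after 4uM final 54-4 (EC80).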
Menin-MLL FL inh: inhibitors of human menin-MLL interaction, wild-type MLL peptide; Fluorescence polarization, fluorescein-MLL peptide displacement from menin; FP activity change, % at 61.4 µM; 290,000 tested, under 10 active; AID 1766; inconclusive = falling polarisation curve, or a change in total fluorescence; inactive = total fluorescence flat and polarisation flat or rising; no compound was filed as active; the % refers to the polarisation; negative = inhibition;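 note: % of control where 0% means no effect; inhibitors lower the polarisation; unlabelled MLL peptide was the positive control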
gsp agonist: agonists of gsp mutant (McCune-Albright syndrome) | gsp mutant cells, cAMP HTRF, 30 min; control for the full effect not named in the record | Potency, µM (top dose mostly 76.9 µM), inactives show at the highest dose activation (cAMP increase), actives largely listed as activators | AID 624287 | 340,000 tested, 0.13% active; active = well fitted activation curve with a large enough effect; inconclusive = small, poorly fitted or top-dose-only effect, or another doubt; inactive = no such curve, though single readings can be large or run the other way; cell line not stated here;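 note: phosphodiesterase inhibitor Ro 20-1724 added with compounds to block cAMP breakdown; potency is the fitted concentration of half-maximal effect; nearly all actives have a fitted effect of over 60% in size; about a fifth of the inactives were tested at one dose only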
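Cells stably selected in G418 were plated at 2000/well, grown 16-24 hr, then given compounds in DMSO with the PDE inhibitor […] (300 uM solution added) for 30 min at 37C; cAMP was read by HTRF.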
TRPML1 blocker: inhibitors of human TRPML1 channel; Q9GZU1; TRPML1-inducible cells, Ca2+ dye fluorescence, FDSS; stronger effect = lower value; inhibition of EC80 agonist-evoked calcium signal; activity change, negative = inhibition, % (concentration not given with the values); 390,000 tested, 0.02% active; AID 624415; in the data active means activity change below about -50%; inconclusive means about -30% to -50%; inactive means above about -30%;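 note: stimulus is agonist 54-4 at its EC80 concentration; % is set by controls: 0 for no effect and ±100 for the full control effect; compound concentration not given in the record; the text of the record puts the active cut at -80%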
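Tet-induced TRPML1-DL cells loaded with Ca8 no-wash calcium dye were read kinetically on FDSS. Compound addition was followed by EC80 agonist 54-4 (4 uM final); inhibition was read over 110 s.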
ClpP mod: qHTS Assay for Activators of ClpP. 340,000 tested, 1.9% active. purified B. subtilis ClpP, FRET peptide cleavage, 20 min. Potency, µM (doses to about 57.5 µM), for the others: top-dose activity change, negative = active. AID 651965, 2013; active = well fitted falling curve with a large enough effect; inconclusive = small, poorly fitted or top-dose-only effect; inactive = no such curve, though single readings can be large or run the other way; note: potency is the fitted concentration of half-maximal effect; the source files actives as falling curves though it sought activators and does not explain the sign; nearly all actives have a fitted effect of over 65% in size; many hits overshoot -100%
Target sequence (P80244 whole entry, looked up): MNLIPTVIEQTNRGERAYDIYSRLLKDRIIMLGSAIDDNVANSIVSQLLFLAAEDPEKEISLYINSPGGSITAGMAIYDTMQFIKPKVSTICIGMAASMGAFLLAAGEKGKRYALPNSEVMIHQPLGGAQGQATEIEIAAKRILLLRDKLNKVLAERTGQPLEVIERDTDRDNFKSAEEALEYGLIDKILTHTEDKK
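Buffer: 100 mM Tris/HCl pH8, 100 mM KCl, 0.05% low protease BSA, 2.5% glycerol, 0.01% Tween-20. ClpP 10 microg/mL final; 20 min RT; delta FRET normalized to ADEP and DMSO controls.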
gsp antag: antagonists of gsp mutant (McCune-Albright syndrome). gsp-mutant cells, cAMP HTRF, 30 min; control for the full effect not named in the record. Potency, µM (titrated, usually from 76.9 µM), for the others: at the highest dose activity change, negative = inhibition, hits mostly inhibitors. 340,000 tested, 0.4% active. AID 624288; active = falling curve of any shape with a large fitted effect; inconclusive = falling curve, mostly with a smaller effect; inactive = flat or rising curve; cell line not stated here;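 note: intracellular cAMP measured with PDE inhibitor Ro 20-1724 present during compound exposure; potency is the fitted concentration of half-maximal effect; % is set by controls: 0 for no effect and ±100 for the full control effect; nearly all actives have a fitted effect of over 65% in size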
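Measurement of cellular cAMP by homogeneous time-resolved fluorescence following a 30 min compound exposure at 37C. The PDE inhibitor […] was present throughout; the assay buffer was DPBS with 0.05% BSA and 0.005% Tween 20.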
Numbers without * were called inactive; ? = inconclusive; · = no result given; & = joins results of further samples; [ ] = another dose, or the depositor's remark.

Results follow in this order: TRPML1 agonist | Menin-MLL FL inh | gsp agonist | TRPML1 blocker | ClpP mod | gsp antag
- Nn1c(SCC(=O)Nc2ccc3c(c2)OCO3)nnc1-c1ccncc1
    0.4 | 3.0 | -5%[15.4 µM] | -2 | 1.4% | 9%
- O=C(/C=C/c1cccc(C(F)(F)F)c1)N1CCN(c2ccccn2)CC1
    3.1 | · | -27% | 0 | -1.5% | -11%
- CCOC(=O)c1c(CN2CCC(C)CC2)oc2ccc(OC)cc12
    0.1 | 0.4 | -34%[inhibitor] | -5 | -8.9% | -8%
- Cc1ccc(CNc2ncnc3c2nc2n3CCCC2)cc1
    0.2 | · | · | 26 | -4.6% | ·
- COc1cc(CNc2ncnc3c2ncn3[C@H]2CN(Cc3ccccc3)C[C@@H](COC(C)=O)O2)cc(OC)c1OC
    -0.1 | · | · | -17 | -1.1% | ·
- COCCC(=O)N1CCC(Oc2ccc(C(=O)NCc3nccn3C)cc2)CC1
    0.0 | 0.3 | -1% | 8 | 1.1% | 11%
- COc1cc(C(=O)NCC(c2ccc(N(C)C)cc2)N2CCc3ccccc32)cc(OC)c1OC (configuration not stated)
    1.2 | · | · | 16 | 0.1% | ·
- CCN1C(=O)CC2CCCC1C2 (configuration not stated)
    0.1 | · | 7% | -1 | -0.9% | 4%
- CCOc1cccc(C2c3c(-c4cc(C)ccc4O)n[nH]c3C(=O)N2Cc2ccco2)c1 (configuration not stated)
    2.7 | · | · | 6 | 3.7% | ·
- CC(Oc1ccccc1)C(=O)Nc1nnc(S(=O)(=O)N2CCCCCC2)s1 (configuration not stated)
    -0.5&0.1 | 0.9 | 1% | -11&-6 | 1.1%&-0.6% | -12%
- O=C(OCc1cc(-c2ccccc2)no1)c1ccc2ccccc2n1
    1.9 | -1.0 | -22% | 18 | 0.8% | -1%
- COc1cc(C2C(S(=O)(=O)c3ccccc3)CON2C)ccc1OCc1ccc(F)cc1 (configuration not stated)
    0.7 | -3.1 | -16%[15.4 µM] | -8 | · | 7%
- COc1ccc(-c2nnn(CCC(=O)O)n2)cc1
    0.4 | -0.7 | -6% | -2 | -1.0% | 2%
- O=C(CN1CCC(c2nc3ccccc3[nH]2)CC1)Nc1ccc2c(c1)OCO2
    -0.4 | 0.7 | 7% | -2 | -0.5% | 7%
- CSc1ccc(/C=C(\C(=O)O)c2ccc(S(=O)(=O)N3CCCC3)s2)cc1
    4.5 | · | -18% | -15 | -12% | -8%
- CCOc1ccc2oc(-c3ccccc3)c(C(=O)N3CCN(CCO)CC3)c2c1
    -0.1 | 5.7 | -5% | 2 | 14µM* | -26%
- COCCn1c(C)cc(O)c(C(c2ccc(OC)cc2)N2CCCCC2)c1=O (configuration not stated)
    0.9 | · | · | -4 | -3.2% | ·
- Cc1cc(C)n2nc(C(=O)Nc3ccc4c(c3)OCO4)nc2n1
    -0.3 | 11 | ? | 3 | -3.2% | -5%
- CCN(CC(=O)Nc1ccc(N2CCOCC2)cc1)C(=O)Cc1ccccc1
    -0.7 | · | ? | 10 | -0.4% | -1%
- Cc1ccc(NC2(C(N)=O)CCCC2)cc1
    -0.5 | · | -2% | 1 | · | 2%

Shown bar-delimited: entries from further up
SMILES | TRPML1 agonist | Menin-MLL FL inh | gsp agonist | TRPML1 blocker | ClpP mod | gsp antag
O=C(/C=C/c1cccc(C(F)(F)F)c1)N1CCN(c2ccccn2)CC1 | 3.1 | · | -27% | 0 | -1.5% | -11%
COCCn1c(C)cc(O)c(C(c2ccc(OC)cc2)N2CCCCC2)c1=O (configuration not stated) | 0.9 | · | · | -4 | -3.2% | ·
O=C(CN1CCC(c2nc3ccccc3[nH]2)CC1)Nc1ccc2c(c1)OCO2 | -0.4 | 0.7 | 7% | -2 | -0.5% | 7%

(cont.)
Results follow in this order: TRPML1 agonist | Menin-MLL FL inh | gsp agonist | TRPML1 blocker | ClpP mod | gsp antag
- CCc1ccccc1N1C(=O)N(Cc2cccc(Cl)c2)c2ccccc2S1(=O)=O
    2.2 | · | · | -2 | 1.4% | ·
- Cc1cccc(-n2c(O)c(C=Nc3cc(O)ccc3C)c3ccccc3c2=O)n1
    -0.9 | 13 | -17%[15.4 µM] | 28 | -62% | 0%
- COc1ccc(CCN2CCC(CNC(=O)c3cnn(-c4cccc(Cl)c4)c3C3CCN(C(=O)OC(C)(C)C)CC3)CC2)cc1
    0.4 | · | · | 3 | -2.5% | ·
- Cc1cc(-n2c(C)cc(C(=O)CN3C(=O)NC4(CCCCC4)C3=O)c2C)no1
    -0.6 | 5.4 | 2% | 9 | -2.3% | 5%
- C=CCn1c(SCC(=O)NC2CCCC2)nc2ccccc21
    -0.2 | · | -12% | 14 | 0.1% | ·
- CC1(C)CC(=O)C=C(NNC(=O)c2cccnc2)C1
    2.3 | ? | -5%[15.4 µM] | -1 | · | -14%
- CC1CN(CCOc2ccc([N+](=O)[O-])cc2)CC(C)O1 (configuration not stated)
    -0.4 | · | -2% | 0 | -2.3% | 13%
- CCOC(=O)c1nnn2c1nc(N1CCN(C)CC1)c1ccccc12
    -0.5 | 4.5 | 18%[15.4 µM] | 8 | -1.8% | 1%
- NNC(=O)C(Cc1c[nH]c2ccccc12)NC(=O)c1ccccc1 (configuration not stated)
    1.4 | -0.1 | -5%[15.4 µM] | 4 | · | 6%
- Cc1ccc(CNC(=O)C2CCCN(Cc3nc(-c4cccc(C)c4)oc3C)C2)cc1 (configuration not stated)
    0.1 | · | · | 12 | -1.9% | ·
- COc1cc2c(cc1OC)CN(CC(=O)NC(=O)NCc1ccccc1)CC2
    -0.9 | -3.5 | ? | -4 | · | -2%
- CCOC(=O)C1CCN(Cc2nnnn2CCc2ccccc2)CC1
    3.1 | 7.3 | 35% | 5 | 0.6% | -17%
- O=C1CCCN1c1ccc(S(=O)(=O)N2CCCCC2)cc1
    1.2 | -7.8 | ? | 31 | · | 9%
- Cc1c(NC(=O)C(C)OC(=O)C23CC4CC(CC(Br)(C4)C2)C3)c(=O)n(-c2ccccc2)n1C (configuration not stated)
    -0.3 | -4.1 | 22% | 0 | -0.3% | 8%
- CCNc1nc(OC)nc(N2CCC(Cc3ccccc3)CC2)n1
    4.6 | 3.4 | 10% | 28 | -1.8% | -6%
- Cc1c(NC(N)=O)c(=O)n(-c2ccccc2)n1C
    -0.3 | 5.6 | 22% | 31 | · | 7%
- Cc1cc(C)nc(Nc2nc(=O)c3ccccc3s2)n1
    -1.6 | -0.1 | 9% | 17 | -5.2% | 1%
- CCOC(=O)c1c(C)n(C)c2c(C)cc(O)c(OC(C)=O)c12
    -0.7 | 1.6 | 22% | 7 | 0.3% | 5%
- Cc1ccc(-c2sc(-c3ccccc3)nc2CC(=O)Nc2ccccc2F)cc1
    1.0 | 6.9 | -13% | ? | -19% | -2%
- COc1ccc(C)cc1-n1nnnc1SCC(=O)Nc1cccnc1Cl
    0.2 | -6.1 | -3% | -22 | -3.7% | -9%

Quoted at random: two entries already listed
Results follow in this order: TRPML1 agonist | Menin-MLL FL inh | gsp agonist | TRPML1 blocker | ClpP mod | gsp antag
- COc1cc(CNc2ncnc3c2ncn3[C@H]2CN(Cc3ccccc3)C[C@@H](COC(C)=O)O2)cc(OC)c1OC
    -0.1 | · | · | -17 | -1.1% | ·
- CCOC(=O)c1c(C)n(C)c2c(C)cc(O)c(OC(C)=O)c12
    -0.7 | 1.6 | 22% | 7 | 0.3% | 5%

(more compounds)
Results follow in this order: TRPML1 agonist | Menin-MLL FL inh | gsp agonist | TRPML1 blocker | ClpP mod | gsp antag
- CCN(CC)c1ccc(NC(=O)Cn2nnc(-c3cccc(OC)c3OC)n2)c(C)c1
    0.8 | 0.8 | 1% | -3 | 2.1% | 6%
- CCCCNc1c(-c2cccc(-c3cc(C(C)=O)cs3)c2)nc2ccc(C)cn12
    -0.7 | · | · | -5 | -2.2% | 35µM*
- COc1cc2nc(SCC(=O)NCc3ccco3)n(Cc3ccc(Cl)cc3)c(=O)c2cc1OC
    -0.7 | 5.7 | 21% | 30 | -1.7% | 8%
- N#Cc1cccc(NC(=O)CN2CCN(Cc3ccccc3)CC2)c1
    -0.4 | -2.3 | 9%[15.4 µM] | 3 | · | 2%
- O=C1CC[C@H](O)CCN1[C@H](CSc1ccccc1)Cc1ccccc1
    -0.7&-0.3 | 3.1 | · | 21 | -3.5%&-0.6% | 5%
- COc1cc(NC(=O)CSc2nc(-c3cccs3)cc(C(F)(F)F)n2)cc(OC)c1OC
    -0.7 | · | · | 4 | -0.4% | ·
- CCC(C)C(NC(=O)OC(C)(C)C)C(=O)NC1COC2CC(n3ccc(=O)[nH]c3=O)OC12 (configuration not stated)
    0.2 | 1.3 | · | -16 | · | ·
- CC(C)(C(=O)N[C@H](CO)c1ccccc1)C(=O)N[C@H](CO)c1ccccc1
    -0.3 | -2.4 | · | -9 | 3.0% | -15%
- O=C(CSc1nnc(NC(=O)C2CC(=O)N(c3ccccc3)C2)s1)NC1CCCC1 (configuration not stated)
    1.1 | -0.1 | ? | -11 | -1.6% | 6%
- COc1ccc(-c2nc(N)n(C(C)=O)n2)cc1
    -1.1 | 0.1 | -25% | -8 | 42% | -2%
- CC(C)c1ccc(/C=C2\SC(N3CCOCC3)=NC2=O)cc1
    -1.1 | -3.3 | 2%[15.4 µM] | 25 | · | -10%
- CC1CCN(CCNC(=O)c2ccc(Cn3c(SCc4ccccc4)nc4cccnc43)cc2)CC1
    0.1 | · | · | 13 | 16µM* | ·
- Cc1cc(Cl)ccc1NC(=O)CN1C(=O)C(=O)N(C2CCCC2)C1=O
    -0.3 | · | 3% | -4 | 2.7% | 7%
- CCOC(=O)N1CCc2c(sc3c2c(=O)n(Cc2ccccc2)c(=O)n3CC(=O)Nc2ccccc2F)C1
    0.8 | · | · | -3 | -1.8% | ·
- COc1cc(OC)c(NC(=O)c2c(C)oc3ncn(C)c(=O)c23)cc1Cl
    -0.8 | · | · | -15 | 0.0% | ·
- Cc1ccc(OCC(=O)NC(=S)Nc2ccc3c4c(cccc24)CC3)cc1
    -0.2 | 1.2 | 46%[15.4 µM] | -14 | · | 3%
- CC(=O)N1CCC2(CC1)OC(=O)C(C)=C2C(=O)NCc1ccccc1Cl
    -0.2 | · | · | -19 | 1.6% | ·

Records listed above that bear a hit mark in gsp antag:
canonical_smiles	Menin-MLL FL inh	gsp agonist	TRPML1 blocker	gsp antag
CCCCNc1c(-c2cccc(-c3cc(C(C)=O)cs3)c2)nc2ccc(C)cn12	·	·	-5	35µM*
